Assay outcomes as filed in PubChem BioAssay.
Arbovirus anti = antivirals against arbovirus infection; arbovirus infection cell-based antiviral screen; inhibition, % at 10 µM; 0.37% of 200,000 active; AID 1251;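 active means inhibition from about 30%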;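 further: bluetongue infection of BSR cells; cell survival read as ATP light after 72 h; 0% = infected wells without compound and 100% = uninfected wells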
Mtb H37Rv = M. tuberculosis H37Rv growth inhibitors, H37Rv strain (AID 1626); M. tuberculosis H37Rv growth inhibition; higher % means a stronger effect; inhibition, % at 10 µM, or IC50 in µM where a hit was titrated; 0.95% of 220,000 active;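 active means confirmed in a dose series; inconclusive means inhibition above 80% but not taken into the dose series; inactive means below 80% or under 30% at every dose of the series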;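 further: bacteria incubated seven days before Alamar blue readout; 0% = bacteria only wells and 100% = bacteria with antibiotic wells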
Mtb betalactam = beta-lactam sensitization of Mtb H37Rv. 0.27% of 330,000 active. inhibition, % at 25 µM. M. tuberculosis H37Rv growth with meropenem, percent inhibition; hits of this screen are not shown here. AID 434955;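 active means about 74% or more and at least 40 points above the plate without the antibiotic, then above 30% in a dose series; inconclusive means first-round hits that could not be retested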;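 further: growth measured after seven days incubation then overnight dye step; 0% = bacteria only wells and 100% = bacteria with antibiotic; twin plates without the antibiotic show which effects depend on it; some results filed as inactive read as strong as hits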
RecA intein inh = inhibitors of M. tuberculosis RecA intein splicing | P9WHJ3 | cell-free RecA intein splicing, fluorescence | inhibition, %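 (about 9 µM by stock and volumes)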 | 0.75% of 290,000 active | AID 2221; in the data active means inhibition above about 30%; inconclusive means no clear call, values can overlap the other calls;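 further: 0% = vehicle wells and 100% = reference inhibitor control wells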
Target sequence (P9WHJ3 whole entry, looked up): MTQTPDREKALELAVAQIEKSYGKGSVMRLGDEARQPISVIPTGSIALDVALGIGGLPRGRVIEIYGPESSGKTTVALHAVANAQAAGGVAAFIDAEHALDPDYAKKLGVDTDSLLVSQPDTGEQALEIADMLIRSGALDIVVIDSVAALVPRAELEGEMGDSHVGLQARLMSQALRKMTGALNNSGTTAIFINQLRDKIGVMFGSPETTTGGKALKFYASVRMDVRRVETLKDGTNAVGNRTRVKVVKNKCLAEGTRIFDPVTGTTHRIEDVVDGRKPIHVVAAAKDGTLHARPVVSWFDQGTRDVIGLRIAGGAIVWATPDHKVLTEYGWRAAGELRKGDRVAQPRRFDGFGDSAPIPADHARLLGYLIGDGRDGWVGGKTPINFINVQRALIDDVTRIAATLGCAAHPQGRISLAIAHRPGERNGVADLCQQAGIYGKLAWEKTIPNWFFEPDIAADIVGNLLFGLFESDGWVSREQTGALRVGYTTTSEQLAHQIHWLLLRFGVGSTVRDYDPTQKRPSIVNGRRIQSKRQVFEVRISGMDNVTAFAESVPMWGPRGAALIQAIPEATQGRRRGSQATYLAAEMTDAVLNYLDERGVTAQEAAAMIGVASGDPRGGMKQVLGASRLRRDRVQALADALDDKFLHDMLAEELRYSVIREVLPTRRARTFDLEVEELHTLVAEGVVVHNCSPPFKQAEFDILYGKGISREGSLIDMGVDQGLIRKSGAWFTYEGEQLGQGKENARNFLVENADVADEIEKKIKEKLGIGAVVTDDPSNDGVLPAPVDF
YopH inh = YopH (Yersinia) phosphatase inhibition | fluorescence Ex485/Em525 | 0.16% of 140,000 active | inhibition, %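 (about 10 µM by stock and volumes)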 | AID 898;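 active means inhibition of 50% or more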;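 further: controls were vehicle for no effect and minimum signal wells for full effect; inactives centre near -20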
Arbovirus anti repeat = recorded beside Arbovirus anti, whose call it bears; inhibition, %; measured here: 10K subset replicate screen; many hits read low in the repeat;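 first of two repeat runs on a subset; 0% = infected and 100% = uninfected wells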
* marks the source's active call; other numbers are inactive results; ? = inconclusive; nt = not tested or not shown.

SMILES | Arbovirus anti | Mtb H37Rv | Mtb betalactam | RecA intein inh | YopH inh | others
CCNc1nc(Oc2ccccc2)nc(OC(C)C(=O)OCC)n1 (stereo not drawn) | 0 | 2% | -10 | 2.2 | -19
C=CCN1C(=O)C(CC(=O)NCC)SC1=Nc1ccc(S(N)(=O)=O)cc1 (stereo not drawn) | 1 | -3% | -7 | -1.6 | -24
CC(C)NC(=O)Nc1ccc(Br)cc1Cl | 13 | 5% | 0 | nt | nt
Cn1cnc(S(=O)(=O)Nc2ccc(C(F)(F)F)cc2)c1 | 8 | -8% | -2 | 0.0 | -2
CC(C)(C)c1ccc(Oc2ccc(NC(=O)c3ccccc3C(=O)O)cn2)cc1 | nt | -4% | 4 | 3.1 | nt
COc1ccccc1NC(=O)c1ccc(NS(=O)(=O)c2ccc(F)c(Cl)c2)cc1 | 4 | 2% | 5 | -1.7 | -15
CN(C)Cc1ccccc1Sc1cccc2ccccc12 | 4 | 9% | -4 | -1.7 | -27
O=C(NN=C1CCCC1)C(=O)Nc1cccc(C(F)(F)F)c1 | -2 | 9% | 7 | 2.0 | -31
O=C1CCCc2oc3ccc(O)cc3c21 | 0 | ? | 99 | 1.9 | -1
COc1cc([N+](=O)[O-])ccc1NC(=O)NCc1cccnc1 | nt | nt | -14 | -0.4 | nt
COc1ccc(C)cc1-n1nnnc1SCC(=O)c1ccc2c(c1)OCCO2 | 2 | -7% | 3 | -2.8 | -32
Cc1ccc(C(=O)C2CCN(CC(=O)N3CCN(c4ccc(F)cc4)CC3)CC2)cc1 | -3 | -2% | 86 | -3.7 | nt
Cc1cccc(N(C(=O)c2snc(C(N)=O)c2N)C(C(=O)NC2CCCC2)c2ccncc2)c1 (stereo not drawn) | nt | nt | 3 | 1.1 | nt
CC1CC1C(=O)Nc1cc(C(F)(F)F)ccc1N1CCOCC1 (stereo not drawn) | nt | nt | 3 | -3.4 | nt
CCOc1ccccc1NC(=O)Nc1ccc2c(c1)OCO2 | nt | nt | 4 | -2.5 | nt
CCc1noc(C)c1C(=O)Nc1cc(S(=O)(=O)N2CCOCC2)ccc1N1CCN(CC)CC1 | nt | nt | 2 | 0.5 | nt
CCc1c(C)sc2nc3c(C(=O)N4CCOCC4)cc(C(=O)c4cc(F)ccc4O)cn3c(=O)c12 | -8 | 78% | 96 | -2.6 | nt
Cc1ccc(C(=O)NC(=S)Nc2ccc3c(c2)OCCO3)c(C)c1 | 6 | 5% | -2 | 1.4 | -21
COC(=O)c1ccc(Cn2nc(-c3ccc(C)cc3)ccc2=O)cc1 | nt | nt | 9 | 1.4 | nt
Cc1ccccc1Oc1cc(NC(=O)CCCn2nc(C)c([N+](=O)[O-])c2C)cc([N+](=O)[O-])c1 | -32 | 5% | 96 | 6.5 | -19
CCOc1cc(/C=N/NC(N)=O)cc(Br)c1OCc1ccccc1 | nt | nt | 26 | -1.4 | nt
CCOc1ccccc1NC(=O)Cn1nnc(C(=O)NCc2ccc3c(c2)OCO3)c1N | nt | nt | 10 | -1.3 | nt
O=C(CS(=O)(=O)c1cn(CC(=O)N2CCOCC2)c2ccccc12)Nc1ccccc1 | 0 | 0% | -4 | -1.0 | nt
COc1ccc(-n2c(C)cc(C(=O)COC(=O)c3cc(OC)c(OC)cc3NC(=O)c3cccs3)c2C)cc1 | -2 | 12% | 11 | nt | -14
COCCNC(=O)C1(S(=O)(=O)c2ccccc2)CC=CC1 | nt | nt | -2 | -2.7 | nt

Compounds listed so far with a nitro group on carbon:
SMILES | Arbovirus anti | Mtb H37Rv | Mtb betalactam | RecA intein inh | YopH inh | others
COc1cc([N+](=O)[O-])ccc1NC(=O)NCc1cccnc1 | nt | nt | -14 | -0.4 | nt
Cc1ccccc1Oc1cc(NC(=O)CCCn2nc(C)c([N+](=O)[O-])c2C)cc([N+](=O)[O-])c1 | -32 | 5% | 96 | 6.5 | -19

The results go on.
SMILES | Arbovirus anti | Mtb H37Rv | Mtb betalactam | RecA intein inh | YopH inh | others
CCC(C)[C@H](NC(=O)Nc1ccc2c(c1)OCCO2)C(=O)OC (stereo partly drawn) | nt | 3% | 6 | -3.0 | nt
Cn1cc(CN(CCCN2CCOCC2)C(=S)Nc2cccc(Cl)c2)c2ccccc21 | -11 | 12% | -1 | -9.8 | -21
C/C=C/Cn1c(Br)nc2c1c(=O)[nH]c(=O)n2C | -3 | -8% | ? | 1.8 | 21
Cc1cc(C)nc(N2CCCC(C(=O)Nc3ccc4c(c3)OCCO4)C2)n1 (stereo not drawn) | -1 | -1% | -4 | 4.0 | -29
COc1cc(NC(=O)c2sc(C)nc2C)c(OC)cc1NC(=O)c1ccccc1 | nt | nt | 95 | -2.2 | nt
COc1ccc(CCC(=O)NC2CCCc3ccccc32)cc1OC (stereo not drawn) | nt | nt | 8 | -0.1 | nt
CC(OC(=O)c1ccc(Cl)c(S(=O)(=O)N2CCOCC2)c1)C(=O)NC1CCCCC1C (stereo not drawn) | nt | nt | -5 | 0.9 | nt
OCCC1CN(Cc2ccc(Oc3ncccn3)cc2)CCN1C1CCCCC1 (stereo not drawn) | nt | -1% | -8 | -1.5 | nt
Cc1ccc(/C(O)=C2/C(=O)C(=O)N(CCCn3ccnc3)C2c2ccccn2)cc1 (stereo not drawn) | 2 | nt | nt | 4.6 | -26
CCCS(=O)(=O)c1c(S(=O)(=O)CCC)c2cnccn2c1C(=O)c1ccc(OC)cc1 | nt | -13% | 4 | -2.5 | nt
COc1ccc(/C=C/C(=O)Nn2cnnc2)cc1 | 6 | -3% | -3 | -2.6 | -21
Cc1[nH]c2ccccc2c1-c1nc2ccccc2[nH]c1=O | nt | nt | 5 | -0.3 | nt
Cc1ccccc1NC(=O)CSc1nnc(C2CC2)n1CC1CCCO1 (stereo not drawn) | nt | nt | -8 | 7.0 | nt
COC(=O)C1=C(C)NC(=O)NC1c1cn(-c2ccccc2)nc1-c1cccs1 (stereo not drawn) | 10 | 1% | -6 | 4.0 | -43 | Arbovirus anti repeat=3
C=CCOc1ccc(/C=C(\C#N)C(=O)Nc2ccccn2)cc1OC | nt | nt | 2 | -0.2 | nt
CN1CCN(S(=O)(=O)c2ccc(NC(=O)c3ccc(Br)s3)cc2)CC1 | -7 | -4% | nt | 0.8 | -19
Cc1ccc2c(c1)NCC(C(=O)NC1CCC(C)CC1)O2 (stereo not drawn) | -8 | nt | -3 | -0.2 | -28 | Arbovirus anti repeat=5
CCC(=NCCc1c[nH]c2ccccc12)c1c(O)n(-c2ccc(C)cc2)c(=O)[nH]c1=O | 21 | 10% | -7 | 0.4 | 0
C=Cc1ccc2c(c1)N(C)C(=C)S2 | -9 | 1% | -5 | 0.1 | nt
Cc1ccc(Nc2nc(C(=O)N3CCC(C(=O)N4CCN(C)CC4)CC3)cs2)cc1 | 7 | -9% | -21 | 4.8 | -42
COc1ccc(C)cc1NC(=O)C(c1ccccc1)N1CCNC(=O)C1 (stereo not drawn) | 20 | 0% | -5 | -0.8 | nt
CCC(C)(C)C1CCC2(CC1)NC(CO)(CO)CO2 (stereo not drawn) | 0 | 4% | -1 | 2.4 | -7
O=C(Nc1ccc(N2CCOCC2)nc1)c1ccccc1Cl | nt | -7% | 2 | -1.7 | nt
Cc1cccn2c(=O)c(/C=C(\C#N)S(=O)(=O)c3ccccc3)c(Oc3ccc(Cl)cc3)nc12 | -28 | 5% | 0 | -1.3 | -29
CC(C)OCCCNc1ncnc2c1cnn2-c1ccccc1 | -18 | 5% | 0 | -30 | -7
SMILES | Arbovirus anti | Mtb H37Rv | Mtb betalactam | RecA intein inh | YopH inh | others
Cc1ccc2c(=O)cc(C(=O)NCCc3ccc(S(N)(=O)=O)cc3)oc2c1 | nt | nt | -10 | -1.2 | nt
CC(=O)OCC(=O)[C@@]1(O)CC[C@H]2[C@@H]3CCC4=CC(=O)CC[C@]4(C)[C@H]3C(=O)C[C@@]21C | nt | -12% | 1 | 0.1 | nt
Fc1ccccc1N1CCN(C2CCCN(Cc3cccc(C(F)(F)F)c3)C2)CC1 (stereo not drawn) | nt | nt | 22 | 3.6 | nt
O=C(NCc1cccnc1)NC1CCCN1S(=O)(=O)c1ccc(Cl)cc1 (stereo not drawn) | 7 | 6% | -17 | 1.2 | -43
O=C(CNS(=O)(=O)c1cccc(Cl)c1)OCc1csc(-c2ccccc2)n1 | -11 | -5% | 1 | 1.9 | -25
COc1ccccc1/C=N/N1CCN(Cc2ccccc2Cl)CC1 | nt | nt | 7 | -2.3 | nt
CCOC(=O)CN(C(=O)CSc1nnc(C)n1-c1ccccc1)c1cccc([N+](=O)[O-])c1 | 7 | -8% | -2 | -0.3 | -10
COCCSc1ccccc1C(=O)NCCCn1ccnc1 | -1 | 4% | 0 | 5.4 | -20
Cc1ccc2oc(C(=O)N(C)Cc3cnccn3)c(C)c2c1 | nt | nt | ? | 3.1 | nt
COc1ccc(S(=O)(=O)NCCCN2CCCC2=O)c(OC)c1 | nt | nt | -6 | -2.0 | nt
O=C(NCC1CCCO1)C(c1cccs1)N(C(=O)Cn1nnc(-c2cccs2)n1)C1CCCC1 (stereo not drawn) | 5 | -11% | 0 | -1.0 | -19
COc1ccc(OCC(O)CN(C)C(=O)C(C)Oc2ccccc2)cc1 (stereo not drawn) | nt | nt | -11 | -1.2 | nt
CC(C)CCOc1cccc(OCC(=O)O)c1 | 3 | -2% | nt | 0.6 | nt
CN(C(=O)N1CCN(c2ccccn2)CC1)c1ccccc1 | 2 | -4% | -10 | 2.3 | -4
COc1ccc(-c2cc(C(F)(F)F)n3nc(C(=O)N4CCC5(CC4)OCCO5)cc3n2)cc1OC | 0 | 1% | 0 | -10 | -65
CCCCCOC(=O)Cn1c(N2CCOCC2)nc2c1c(=O)[nH]c(=O)n2C | -1 | -10% | 1 | -1.9 | -36
CC(CN1CCC(O)CC1)c1ccccc1 (stereo not drawn) | nt | nt | -1 | 0.0 | nt
COc1cc(/C=N/N(CCO)C2=NS(=O)(=O)c3ccccc32)cc(OC)c1OC | nt | nt | -4 | -9.8 | nt

Structural class, those above containing a Cl atom (9)
SMILES | Arbovirus anti | Mtb H37Rv | Mtb betalactam | RecA intein inh | YopH inh | others
CC(C)NC(=O)Nc1ccc(Br)cc1Cl | 13 | 5% | 0 | nt | nt
COc1ccccc1NC(=O)c1ccc(NS(=O)(=O)c2ccc(F)c(Cl)c2)cc1 | 4 | 2% | 5 | -1.7 | -15
Cn1cc(CN(CCCN2CCOCC2)C(=S)Nc2cccc(Cl)c2)c2ccccc21 | -11 | 12% | -1 | -9.8 | -21
CC(OC(=O)c1ccc(Cl)c(S(=O)(=O)N2CCOCC2)c1)C(=O)NC1CCCCC1C (stereo not drawn) | nt | nt | -5 | 0.9 | nt
O=C(Nc1ccc(N2CCOCC2)nc1)c1ccccc1Cl | nt | -7% | 2 | -1.7 | nt
Cc1cccn2c(=O)c(/C=C(\C#N)S(=O)(=O)c3ccccc3)c(Oc3ccc(Cl)cc3)nc12 | -28 | 5% | 0 | -1.3 | -29
O=C(NCc1cccnc1)NC1CCCN1S(=O)(=O)c1ccc(Cl)cc1 (stereo not drawn) | 7 | 6% | -17 | 1.2 | -43
O=C(CNS(=O)(=O)c1cccc(Cl)c1)OCc1csc(-c2ccccc2)n1 | -11 | -5% | 1 | 1.9 | -25
COc1ccccc1/C=N/N1CCN(Cc2ccccc2Cl)CC1 | nt | nt | 7 | -2.3 | nt

Not all compounds are listed; rates above refer to the full screens.
